miR-21 FLuc = miR-21 reporter, rising signal. 340,000 tested, under 10 active. HeLa miR-21 FLuc reporter, luciferase, 48 h. AID 2288. Potency, µM (doses to about 38.3 µM), for inactives: top-dose reporter change, positive = more light; active = well fitted rising curve with a large enough effect; inconclusive = small, poorly fitted or top-dose-only effect; inactive = no such curve, though single readings can be large or run the other way;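 also: % of control where 0% means no effect; miR-21 action dims this reporter so a rising signal means less miR-21 action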
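HeLa miR-21-FLuc reporter line, endogenous miR-21; 2000 cells/well in DMEM/10% FBS; compound titration up to ~40uM final, 48 h, 37 degree Celsius; luciferase detection reagent, 15 min lysis, CCD luminescence.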
GLA inh pH 4.5 = inhibitors of human alpha-galactosidase A at pH 4.5 | 230,000 tested, under 10 active | P06280 | activity change, negative = inhibition, % at 105 µM | purified enzyme, 4-MU-alpha-Gal fluorescence, pH 4.5 | AID 1467; inconclusive = small, poorly fitted or top-dose-only inhibition, or a rising curve; inactive = flat fitted curve, though single readings scatter; no compound was filed as active;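 also: 0% = full activity with enzyme and -100% = basal without enzyme; dose as in the result columns while the protocol names 77 µM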
Rango release inh = prevents RanGTP from dissociating the Rango-importin beta complex; O95149+P62826; Biochemical FRET Rango-importin beta, RanGTP-induced dissociation; Potency, µM (doses to about 46.1 µM), without a hit: at the highest dose activity change, negative = inhibition; actives 0.071% (n = 340,000); AID 540253; active means falling FRET ratio curve, often poorly fitted, with flat reads before Ran was added; inconclusive means other falling curves, or compound fluorescence or quenching; inactive means flat or rising ratio curve;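 also: potency is read from the fitted curve at half-maximal effect; % of control where 0% means no effect; nearly all actives have a fitted effect of over 45% in size; -100% = wells without RanGTP and RCC1; the record marks most hits as doubtful in a second field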
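Quantitative HTS using a FRET biosensor: 0.1 uM Rango, 0.25 uM importin beta, 0.6 uM Ran, 2 mM GTP, 0.2 uM RCC1 final, PBS with DTT, Tween-20 and BSA. Post-read taken 45 min after Ran addition.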
Rango complex inh = inhibitors of Rango-importin beta complex formation | Q14974 | Rango CFP/YFP FRET sensor + importin beta, 45 min | Potency, µM (series often up to 92.2 µM), for inactives: at the top dose inhibition of complex formation | actives 0.031% (n = 340,000) | AID 540263; active = rising FRET ratio curve, often small or poorly fitted; inconclusive = mostly compound fluorescence or quenching in the first reads; inactive = flat curves in all reads;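 also: potency is read from the fitted curve at half-maximal effect; 0% = DMSO wells and 100% = buffer wells lacking importin beta; nearly all actives have a fitted effect of over 15% in size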
Target sequence (Q14974 whole entry, looked up): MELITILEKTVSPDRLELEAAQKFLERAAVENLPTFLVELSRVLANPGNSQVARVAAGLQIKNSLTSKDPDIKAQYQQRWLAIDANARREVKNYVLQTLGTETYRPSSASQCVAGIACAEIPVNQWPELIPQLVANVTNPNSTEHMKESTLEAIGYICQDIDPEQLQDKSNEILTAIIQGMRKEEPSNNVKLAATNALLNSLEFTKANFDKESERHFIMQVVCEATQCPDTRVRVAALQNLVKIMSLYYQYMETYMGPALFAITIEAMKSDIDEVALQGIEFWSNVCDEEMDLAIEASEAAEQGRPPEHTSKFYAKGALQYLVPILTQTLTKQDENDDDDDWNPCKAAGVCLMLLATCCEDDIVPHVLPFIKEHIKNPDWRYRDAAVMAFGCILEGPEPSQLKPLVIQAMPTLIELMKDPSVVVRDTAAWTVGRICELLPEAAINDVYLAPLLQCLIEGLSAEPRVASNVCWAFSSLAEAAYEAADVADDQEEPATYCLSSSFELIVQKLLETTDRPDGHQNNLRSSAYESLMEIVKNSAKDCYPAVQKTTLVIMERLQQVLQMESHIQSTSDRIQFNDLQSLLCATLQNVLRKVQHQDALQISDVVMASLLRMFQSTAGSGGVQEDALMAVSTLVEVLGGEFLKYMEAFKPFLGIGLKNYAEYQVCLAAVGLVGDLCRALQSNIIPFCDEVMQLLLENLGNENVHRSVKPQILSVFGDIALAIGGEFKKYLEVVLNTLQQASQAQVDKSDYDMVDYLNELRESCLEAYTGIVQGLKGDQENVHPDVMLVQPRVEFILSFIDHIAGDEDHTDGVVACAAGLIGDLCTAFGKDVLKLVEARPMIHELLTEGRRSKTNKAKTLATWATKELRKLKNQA
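FRET biosensor Rango (snurportin 1 IBB between N-terminal EYFP and C-terminal Cerulean), 50 nM in PBS/1 mM DTT/0.02% Tween-20/0.1% BSA, preincubated 5 min RT with compound; 0.125 microM importin beta added, 45 min RT, CFP/YFP FRET ratio read.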
* marks the source's active call; other numbers are inactive results; ? = inconclusive; . = not tested or not shown; & = joins results of further samples. Not all compounds are listed. The share of hits here may be higher or lower than overall.

Preview:
canonical_smiles | miR-21 FLuc | GLA inh pH 4.5 | Rango release inh | Rango complex inh
CCOC(=O)[C@@H]1[C@H]2COc3ccc(Br)cc3[C@H]2N2C(=O)N(c3cccc(Cl)c3)C(=O)[C@]12C | 2% | . | 14% | 1.5%
COc1ccc2c(c1)c1nnc(SC)nc1n2C | -13% | 11 | -9% | -2.3%

Main list, repeating the preview:
canonical_smiles | miR-21 FLuc | GLA inh pH 4.5 | Rango release inh | Rango complex inh
CCOC(=O)[C@@H]1[C@H]2COc3ccc(Br)cc3[C@H]2N2C(=O)N(c3cccc(Cl)c3)C(=O)[C@]12C | 2% | . | 14% | 1.5%
COc1ccc2c(c1)c1nnc(SC)nc1n2C | -13% | 11 | -9% | -2.3%
Cc1cc(N=CC2=C(O)CCCC2=O)no1 | 0% | 1 | -12% | 1.5%
CN=c1oc2ccc(Cl)cc2cc1C(N)=O | 0% | -11 | 0% | -2.5%
CCOC(=O)C1(Cc2cccc(OC)c2)CCCN(C(=O)c2ccccc2C)C1 (centres undefined) | -32% | -6 | -19% | 1.5%
CCOC(=O)N1CCN(CC(=O)Nc2c(C(=O)OC)[nH]c3cccc(Cl)c23)CC1 | 1% | 2 | 6% | 3.8%
Cc1cc(C)cc(NC(=S)NCc2ccncc2)c1 | 0% | 5 | 1% | 0.5%
COc1cccc(CN(C(=O)COc2ccccc2[N+](=O)[O-])C2CCS(=O)(=O)C2)c1 (centres undefined) | -2% | . | 0% | ?
Cc1ccc2oc(=O)c3cnn(CC(=O)NCCc4ccsc4)c3c2c1 | 2% | 2 | -6% | ?
CC(C)c1nc(N2CCN(C(=O)c3ccco3)CC2)c(C#N)c2c1COC(C)(C)C2 | 14% | . | 13% | 3.4%
Cc1nc(CCNC(=O)C2CCC(=O)N(CCc3cccc(F)c3)C2)sc1C (centres undefined) | 2% | . | -1% | 2.1%
CCOc1ccc(NC(=S)NC(=O)/C=C/c2ccc(OC)cc2)c([N+](=O)[O-])c1 | -11% | -5 | 0% | 1.5%
COC(=O)C1=C(C(=O)c2ccc(C)cc2)C(c2ccccc2)n2nnnc2N1 (centres undefined) | -19% | -1 | ? | ?
COc1ccc2cnn(-c3ccccc3)c(=O)c2c1OC | -21% | 2 | -3% | -1.5%
Nc1nc2cc3ccccc3cc2[nH]c1=O | -20% | . | 3% | -1.8%
O=C(Cn1c(=O)c2cccn2c2ccccc21)NCCc1ccccc1 | ? | . | ? | -5.3%
CN(Cc1c(C(=O)N/N=C/c2ccc(O)cc2)nnn1-c1nonc1N)c1ccccc1 | 7% | . | 1% | -1.2%
C/C(CC(=O)Nc1ccccn1)=N\NC(=O)c1ccc2ccccc2c1 | -8% | 2 | 5% | -1.6%
CN(c1ccc(F)cc1)S(=O)(=O)c1ccc(Cl)c(C(=O)NCc2ccco2)c1 | . | . | 27% | 0.2%
O=C(NNC(=O)c1ccccc1Cl)c1cc2cc(OC(F)(F)F)ccc2[nH]1 | -3% | -2 | -30% | 7.2%
CCOc1ccc(CCNS(=O)(=O)c2cc3c(cc2C)NC(=O)CO3)cc1OCC | 1% | . | 14% | 0.7%
Cc1ccnc(NC(NC(=O)C(C)C)(C(F)(F)F)C(F)(F)F)c1 | -14% | -13 | 0% | -1.0%
Cc1ccc(-c2cc(C(F)F)nc(N3CCOCC3)n2)cc1 | 2% | 2 | ? | -0.7%
CSc1ccc(C(=O)N2CCC(CCC(=O)NCc3ccc(F)cc3)CC2)cc1 | 1% | . | -26% | 0.7%
CCOC(=O)c1c(C)[nH]c(C(=O)OCC(=O)Nc2cc(C)c(Cl)cc2OC)c1C | 0% | 1 | -6% | 4.5%
COc1cc2cc(Oc3ccc4ccc(=O)oc4c3)c(=O)oc2cc1OC(C)=O | -1% | 4 | ? | ?
COc1ccccc1OC(C)C(=O)Nc1ccc(S(=O)(=O)Nc2nccs2)cc1 (centres undefined) | 4% | . | -6% | 3.9%
CCCC(=O)NC(=S)Nc1ccc(N2CCN(C(=O)c3cccs3)CC2)cc1 | 9% | -1 | 13% | -4.9%
CCCCNC(=O)/C(C#N)=C/c1cccnc1 | -6% | 7 | -11% | -4.4%
O=C(/C=C/c1ccc(Br)cc1)NC(=S)NNC(=O)c1ccco1 | -49% | 0 | 0% | -1.4%

Exported with two lines to a compound: part of the list above
Below each compound – miR-21 FLuc | GLA inh pH 4.5 | Rango release inh | Rango complex inh
CCOC(=O)[C@@H]1[C@H]2COc3ccc(Br)cc3[C@H]2N2C(=O)N(c3cccc(Cl)c3)C(=O)[C@]12C
  2% | . | 14% | 1.5%
COc1ccc2c(c1)c1nnc(SC)nc1n2C
  -13% | 11 | -9% | -2.3%
Cc1cc(N=CC2=C(O)CCCC2=O)no1
  0% | 1 | -12% | 1.5%
CN=c1oc2ccc(Cl)cc2cc1C(N)=O
  0% | -11 | 0% | -2.5%
CCOC(=O)C1(Cc2cccc(OC)c2)CCCN(C(=O)c2ccccc2C)C1 (centres undefined)
  -32% | -6 | -19% | 1.5%
CCOC(=O)N1CCN(CC(=O)Nc2c(C(=O)OC)[nH]c3cccc(Cl)c23)CC1
  1% | 2 | 6% | 3.8%
Cc1cc(C)cc(NC(=S)NCc2ccncc2)c1
  0% | 5 | 1% | 0.5%
COc1cccc(CN(C(=O)COc2ccccc2[N+](=O)[O-])C2CCS(=O)(=O)C2)c1 (centres undefined)
  -2% | . | 0% | ?
Cc1ccc2oc(=O)c3cnn(CC(=O)NCCc4ccsc4)c3c2c1
  2% | 2 | -6% | ?
CC(C)c1nc(N2CCN(C(=O)c3ccco3)CC2)c(C#N)c2c1COC(C)(C)C2
  14% | . | 13% | 3.4%
Cc1nc(CCNC(=O)C2CCC(=O)N(CCc3cccc(F)c3)C2)sc1C (centres undefined)
  2% | . | -1% | 2.1%
CCOc1ccc(NC(=S)NC(=O)/C=C/c2ccc(OC)cc2)c([N+](=O)[O-])c1
  -11% | -5 | 0% | 1.5%
COC(=O)C1=C(C(=O)c2ccc(C)cc2)C(c2ccccc2)n2nnnc2N1 (centres undefined)
  -19% | -1 | ? | ?
COc1ccc2cnn(-c3ccccc3)c(=O)c2c1OC
  -21% | 2 | -3% | -1.5%
Nc1nc2cc3ccccc3cc2[nH]c1=O
  -20% | . | 3% | -1.8%
O=C(Cn1c(=O)c2cccn2c2ccccc21)NCCc1ccccc1
  ? | . | ? | -5.3%
CN(Cc1c(C(=O)N/N=C/c2ccc(O)cc2)nnn1-c1nonc1N)c1ccccc1
  7% | . | 1% | -1.2%
C/C(CC(=O)Nc1ccccn1)=N\NC(=O)c1ccc2ccccc2c1
  -8% | 2 | 5% | -1.6%
CN(c1ccc(F)cc1)S(=O)(=O)c1ccc(Cl)c(C(=O)NCc2ccco2)c1
  . | . | 27% | 0.2%
O=C(NNC(=O)c1ccccc1Cl)c1cc2cc(OC(F)(F)F)ccc2[nH]1
  -3% | -2 | -30% | 7.2%
CCOc1ccc(CCNS(=O)(=O)c2cc3c(cc2C)NC(=O)CO3)cc1OCC
  1% | . | 14% | 0.7%

(further entries)
canonical_smiles | miR-21 FLuc | GLA inh pH 4.5 | Rango release inh | Rango complex inh
COc1ccc(C(=O)NCc2ccc(S(N)(=O)=O)cc2)cc1[N+](=O)[O-] | -5% | -6 | 9% | 1.0%
O=C(NCCc1csc(-c2cccnc2)n1)c1ccco1 | -2% | -2 | -10% | -0.5%
CCSc1oc(-c2ccccc2)nc1S(=O)(=O)c1ccccc1 | -4% | 3 | 15% | 0.1%
COc1ccc(OCCSCc2nnc(NC(=O)Nc3ccc(Cl)cc3)s2)cc1 | -13% | -1 | 28% | -3.1%
CC1CCN(CC(=O)NCc2ccco2)CC1 | -2% | -4 | 0% | -0.6%
COc1cc(NC(=O)CSc2nnc(Cn3nnc4ccccc43)n2C)cc(OC)c1 | -8% | -8 | 0% | 4.2%
O=C(COc1ccc(F)cc1Br)NCC1(N2CCCCC2)CCCCC1 | . | . | -7% | -4.6%
CN(C)C(=O)/C(C#N)=C\c1cc(Br)c(Sc2ccc(Cl)cc2)o1 | -3% | -6 | 0% | -2.7%
Fc1ccc(Cn2nnnc2C(c2ccc(Cl)cc2)N2CCSCC2)cc1 (centres undefined) | 5% | -3 | 9% | 4.9%
CCCOC(=O)C1=C(C)NC2=C(C(=O)C(C(=O)OC)C(C)C2)C1c1ccc(N(CC)CC)cc1 (centres undefined) | 22% | -24 | -14% | -0.5%
Cc1noc(C)c1S(=O)(=O)N(C)C[C@H]1Oc2ccc(NC(=O)Cc3ccccc3)cc2C(=O)N([C@H](C)CO)C[C@@H]1C | . | . | 11% | 3.3%
CCOc1cc2[nH]c(=O)n(Cc3cccc(OC)c3)c(=O)c2cc1OCC | -7% | 0 | 0% | 2.0%
CCn1cc(C2=NCC(C)O2)c2ccccc21 (centres undefined) | -5% | -8 | -12% | 4.2%
O=C(CCn1nc(-c2ccccc2)ccc1=O)N1CCN(c2ccccc2)CC1 | 8% | . | -8% | ?
Cc1c(/C(O)=C2\C(=O)C(=O)N(CCN(C)C)C2c2cccs2)cnn1-c1ccccc1 (centres undefined) | -49% | 11 | -17% | 0.3%
Cc1ccc(C(N)=Nc2ccccc2)cc1 | -10% | 5 | 21% | 7.8%
COc1cc(OC)cc(-c2c(C#Cc3ccsc3)c3cc(-c4cccc5[nH]ccc45)ccc3n2C)c1 | . | . | 1% | -1.0%
Cc1ccc(O)c(N=Cc2sc3ccccc3c2Cl)c1 | -19% | -7 | 9% | 1.0%
COc1cnc(NS(=O)(=O)c2ccc(N)cc2)nc1 | -3% | 3&-9&6 | 1% | 5.5%
O=C(CN1C(=O)c2ccccc2C1=O)NCC(=O)OCC(=O)c1ccc(Cl)cc1 | -4% | 2 | -2% | -1.0%
CCn1c(C2CC(=O)N(c3cc(C)cc(C)c3)C2)nc2ccccc21 (centres undefined) | 3% | 0 | -2% | -0.4%
CCOC(=O)c1nc2nc(C)cc(=O)n2[nH]1 | 0% | -5 | 5% | 1.9%
CCc1nc(Nc2cccc(OC)c2)c2oc3ccccc3c2n1 | -2% | . | 9% | -2.2%
CCc1ccc(S(=O)(=O)N2CC(=O)Nc3ccccc32)cc1 | -5% | 4 | 13% | 2.1%
Cc1cc(C)c(C#N)c(SCS(=O)Cc2ccccc2)n1 (centres undefined) | -16% | 3 | 1% | -2.8%
Cc1cc(C)nc(N(C#N)Cc2ccccc2C)n1 | -14% | 3 | -17% | 0.9%
COc1ccc(NC(=O)c2sc3nc(N4CCCC4)c4c(c3c2N)CC(C)(C)OC4)cc1 | -12% | . | -15% | 6.9%
CN(Cc1ccc(F)cc1)C(=O)c1cccc(NS(=O)(=O)c2ccccc2)c1 | 0% | . | -11% | -3.6%
CCOc1ccc(C(=O)OCC(=O)N2CCOCC2)cc1OCC | -6% | . | 0% | -3.6%
O=C(N/N=C\c1ccncc1)c1ccc(Cl)s1 | -9% | . | -8% | -4.2%

Next section:
canonical_smiles | miR-21 FLuc | GLA inh pH 4.5 | Rango release inh | Rango complex inh
COc1ccc([N+](=O)[O-])cc1NC(=O)c1ccc(CN(c2ccccc2)S(C)(=O)=O)cc1 | 20% | 9 | 2% | 3.3%
O=C(NC1CCCCCC1)C1CCN(S(=O)(=O)c2ccc(F)cc2)CC1 | -9% | 0 | 6% | 1.3%
Cc1ccc(CCN2CC(C(=O)N3CCN(c4ccc(F)cc4)CC3)CC2=O)cc1 (centres undefined) | 6% | 5 | 0% | -2.3%
COc1ccc(OC)c(C2CC(=O)c3c([nH]c(C(=O)OC(C)C)c3C)C2)c1 (centres undefined) | 20% | 4 | 4% | -0.8%
O=C(Nc1ccc(Cl)cc1)/C(=C/c1cccc(O)c1)c1nc2ccccc2s1 | ? | -6 | -26% | -6.9%
COCCNCCCCOc1ccc(Br)cc1C | -13% | -2 | 8% | 3.2%
Cc1[nH]c2ccccc2c1/C=N/NC(=O)c1cccs1 | -43% | 3 | -27% | ?
N#CC1=C(N)Oc2cc(O)ccc2C1c1cccs1 (centres undefined) | 7% | 3 | ? | ?
CCCCCc1c(C)nc(Nc2nc(C)c3cc(OC)ccc3n2)[nH]c1=O | -4% | -2 | -13% | -3.0%
CC(C)CCNC(=O)CSc1nc2ccsc2c(=O)n1NC(=O)c1ccccc1 | -25% | 7 | 12% | -1.0%
Cc1ccc(P(=O)(O)c2ccc(C)cc2)cc1 | 0% | 1 | 0% | 1.1%

Screens as filed in PubChem BioAssay.
